# Screens as filed in PubChem BioAssay.
# FGF22 binding = binders of recombinant human FGF22 by thermal shift; Q9HCT0; 1.5% of 340,000 active; SYPRO orange fluorescence; percent of sucrose octasulfate shift, DMSO zero; calls only at 9.99 µM; AID 651658;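 active = melting point raised past a set limit in the mean and every replicate; inconclusive = no clear call; three in four hits are not shown here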
# Target sequence (Q9HCT0 whole entry, looked up): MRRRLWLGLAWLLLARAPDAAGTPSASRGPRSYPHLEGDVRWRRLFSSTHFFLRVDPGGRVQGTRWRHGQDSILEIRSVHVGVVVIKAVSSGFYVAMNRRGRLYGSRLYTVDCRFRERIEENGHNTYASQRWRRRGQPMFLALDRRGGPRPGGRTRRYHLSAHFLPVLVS
# Ecoli growth = blocks Escherichia coli growth. OD600, 23 h; hits give low values. OD600 absorbance (test concentration not listed). 0.21% of 330,000 active. AID 1053175;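 active = OD600 absorbance below the run mean of sample wells minus 3.6 SD, in any replicate, cut at about 0.56 in these data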;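 also: stock transfer was 300 nL into about 60 µL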
# UCH37 inh = blocks the human deubiquitinase UCH37 | purified proteasome/UCH37, Ub-AMC cleavage fluorescence | inhibition, % (no concentration beside the values) | 0.33% of 330,000 active;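 active = mean of two replicates above 20%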;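 also: 0% = compound-free wells with enzyme and 100% = wells lacking proteasome; stock transfer was 100 nL into about 20 µL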
#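 Material: human UCH37 enzyme supplied as purified proteasome complex. Measure: % inhibition of Ub-AMC cleavage fluorescence. Medium: pH 7.4 Tris-HCl (50 mM) with ovalbumin, ATP-MgCl2, DTT. Times: 30 min preincubation with enzyme, 25 min cleavage at room temperature. Detection: AMC fluorescence intensity at 355/460 nm.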
# HNF4A DNA FP = change in binding of human HNF4 alpha to DNA. activity change, % at 10 µM. AID 1224865. HNF4a-FITC DNA binding, fluorescence polarization, 1 h. 0.3% of 360,000 active; in the data active = activity change above about 30%, passing the limit was not always enough;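 also: controls were the assay level and a saturating level of protein; the project sought stronger binding though the title names inhibitors; some compounds called inactive have numbers as strong as hits; positive values seem to mean higher polarization but the record does not say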
# Target sequence (P41235 whole entry, looked up): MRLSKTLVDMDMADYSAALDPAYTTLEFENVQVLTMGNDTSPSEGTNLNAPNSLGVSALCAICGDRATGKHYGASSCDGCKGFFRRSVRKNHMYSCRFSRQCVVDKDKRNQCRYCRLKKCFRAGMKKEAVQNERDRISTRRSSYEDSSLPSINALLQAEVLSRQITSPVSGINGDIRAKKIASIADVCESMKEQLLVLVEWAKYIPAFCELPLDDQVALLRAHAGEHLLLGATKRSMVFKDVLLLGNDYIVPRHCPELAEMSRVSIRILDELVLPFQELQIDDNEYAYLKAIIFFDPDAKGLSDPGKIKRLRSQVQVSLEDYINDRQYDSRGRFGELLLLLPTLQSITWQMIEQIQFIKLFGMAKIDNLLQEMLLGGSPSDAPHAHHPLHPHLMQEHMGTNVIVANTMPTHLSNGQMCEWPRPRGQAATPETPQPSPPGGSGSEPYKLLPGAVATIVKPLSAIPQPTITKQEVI
# B2AR ag = agonists of human beta-2 adrenergic receptor inducing internalization. Am2.2-beta2AR cells, FAP receptor internalization, flow cytometry; reference of the scale not given here. response, % (test concentration not listed). 0.43% of 340,000 active. P07550;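 active = response above a set limit, near 3 SD of response in nonfluorescent compounds, cut at about 42% in these data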;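 also: stock transfer was 100 nL into about 11 µL; a reference agonist was the positive control; negative values mostly stem from fluorescent compounds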
# Ecoli rRNA inh = selective bacterial rRNA inhibition in E. coli | E. coli WT GFP vs humanized-ribosome RFP mutants, fluorescence, 24 h; hits give low values; DMSO median 0, no signal -100 | GFP signal change (wild-type ribosome), % (no concentration beside the values) | 1.6% of 350,000 active | AID 720706;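 active = significant combined selectivity score with lowered wild-type GFP, culture density cut under 30%, mutant RFP and density less affected; inactive = any of these conditions unmet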; also: one replicate is shown; some compounds called inactive have numbers as strong as hits
# ALR H2O2 inh = blocks human ALR sulfhydryl oxidase activity | purified ALR, DTT oxidation, H2O2 HRP-luminol luminescence | inhibition, % (no concentration beside the values) | 3.8% of 290,000 active | AID 485317;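 active = mean and each replicate at 75% or more; inconclusive = only one of the two met; inactive = neither met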;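 also: stock transfer was 7.5 nL into about 7.5 µL; 0% = neutral wells and 100% = wells with inactivated enzyme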
# Target sequence (P55789 whole entry, looked up): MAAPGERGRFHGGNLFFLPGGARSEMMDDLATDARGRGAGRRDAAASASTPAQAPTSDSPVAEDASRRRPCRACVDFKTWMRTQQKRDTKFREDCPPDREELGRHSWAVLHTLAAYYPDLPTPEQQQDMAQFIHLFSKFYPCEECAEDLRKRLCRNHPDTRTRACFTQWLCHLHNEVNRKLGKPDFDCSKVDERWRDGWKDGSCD
# Ecoli rRNA inh OD600 = second read-out of Ecoli rRNA inh, no call of its own (marks repeat the call); OD600 change, %; measured here: OD600 growth;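 optical density of the mix in the first replicate; 0 = DMSO median and -100 = no signal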
# Ecoli rRNA inh RFP = also measured in Ecoli rRNA inh; calls as there; RFP signal change, %; measured here: RFP humanized mutant strains;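 first replicate; 0 = DMSO median and -100 = no signal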
# The depositor's hits bear a star; i = inactive; ? = inconclusive; . = no result given; & = joins results of further samples. An excerpt (hit frequency here may not be typical).
# The line under a structure holds: FGF22 binding	Ecoli growth	UCH37 inh	HNF4A DNA FP	B2AR ag	Ecoli rRNA inh	Ecoli rRNA inh OD600	Ecoli rRNA inh RFP	ALR H2O2 inh
CCOC(=O)c1cnn(-c2ccccc2)c1-n1cccc1C(=O)C(=O)Nc1ccccc1C(F)(F)F
    .	0.765	2.5	-2.5	1.1	.	.	.	.
O=C(COC(=O)c1ccc(F)cc1Cl)NC1CCCCCCC1
    i	0.719	3.6	2.3	-6.7	-23.4	-43.9	-2.9	-0.2
COC(=O)CCC(=O)NNC(=O)CCCOc1ccc(Cl)cc1Cl
    .	0.695	4.3	-3.0	-3.6	.	.	.	30.5
COc1cccc(-n2c(-c3ccc4[nH]c(C)c(C)c4c3)n[nH]c2=S)c1
    i	0.695	-1.2	-1.1	5.2	-12.9	-13.4	7.2	.
CSc1nc(Cc2ccccc2)cc(=O)[nH]1
    i	0.652	3.1	2.2	4.9	1.7	-1.5	-2.4	9.4
C=C(C)CN=C1SC(C(=O)Nc2sc3c(c2C(=O)OC)CCC3)C(N)=C1C(N)=O (configuration not stated)
    i	0.707	-12.3	-2.9	8.7	-9.3	-35.0	21.3	.
COc1ccc(CN2CCN(CCCc3ccccc3)C(CCO)C2)c(O)c1 (configuration not stated)
    i	0.718	4.4	-3.3	14.6	4.5	-14.4	1.5	.
COC(=O)[C@H](C)N(Cc1ccc(Cl)c(Cl)c1)S(=O)(=O)CCN1CCN(c2ccccc2)CC1
    i	0.701	4.6	3.6	-7.4	-4.3	-25.1	1.8	.
CC1SC(c2ccc(Cl)cc2)NC1=O (configuration not stated)
    .	0.712	0.6	0.2	3.0	.	.	.	30.3
O=C1NC(=O)c2cc(NC(=O)C3COc4ccccc4O3)ccc21 (configuration not stated)
    i	0.761	-2.2	0.6	-7.7	3.8	-2.5	-0.2	-11.1
COc1ccc(OC)c(C2=C[N+](=O)C(C)(C)C(C)(C)N2[O-])c1
    .	0.765	8.5	-1.3	3.8	.	.	.	.
COc1ccc(/C=C/C(=O)NC(=S)Nc2ccccn2)cc1
    i	0.687	1.9	-1.9	10.6	2.1	5.8	-0.4	-17.5
CC1CCN(CC(=O)NC2CCCCC2)CC1
    i	0.617	1.5	0.1	2.3	2.8	3.1	-3.1	-9.8
COc1cccc2sc(N(CCCN(C)C)C(=O)c3ccc(S(=O)(=O)N4CCCc5ccccc54)cc3)nc12
    i	0.745	6.9	5.1	34.0	-59.0	-78.2	-22.8	-1.3
CCOC(=O)N1CCN(S(=O)(=O)N2CCCC(C(=O)NCCc3ccccc3)C2)CC1 (configuration not stated)
    i	0.638	0.8	-4.8	-4.0	-1.4	-5.0	1.4	-0.9
C[C@H](CO)N1C[C@H](C)[C@@H](CN(C)S(=O)(=O)c2ccc3ccccc3c2)OCc2cn(nn2)CCCC1=O
    i	.	.	2.1	.	-4.0&-4.6	-1.3&-3.8	0.6&-0.4	.
CCOC(=O)N1CCC(NC(=O)c2oc3c(C)c(C)ccc3c2C)CC1
    i	0.651	1.3	-0.1	-0.3	1.1	2.7	-3.0	.
Cc1ccc(C2(C)NC(=O)N(CC(=O)Nc3ccc4c(c3)CCC4)C2=O)cc1 (configuration not stated)
    i	0.658	1.9	3.1	1.0	-8.1	-9.8	9.3	-1.2
CCCCn1c(=O)[nH]c2c(oc3ccccc32)c1=O
    i	0.678	-4.8	3.0	7.1	7.7	13.2	-0.4	20.8
S=c1[nH]nc(CNc2cccc(Cl)c2)o1
    i	0.712	3.9	-2.4	0.1	5.8	5.5	4.7	46.0
CCN(CC)S(=O)(=O)c1cccc(NC(=O)CCSc2ccc(Cl)cc2)c1
    .	0.697	1.5	-0.1	10.2	.	.	.	-22.0
O=S(=O)(c1cccc(C(F)(F)F)c1)N1CCCC1c1cccnc1 (configuration not stated)
    i	0.669	4.4	2.3	6.6	-0.4	-7.6	-3.5	-3.1
CC(OC(=O)c1cccc(-n2cnnn2)c1)C(=O)Nc1ccc(F)c(F)c1F (configuration not stated)
    i	0.679	5.1	1.2	-7.6	0.6	-4.5	1.3	.
CN(C)CCN(C(=O)c1ccc(S(=O)(=O)N2CCc3ccccc32)cc1)c1nc2ccc(F)cc2s1
    i	0.685	3.3	4.6	-3.1	-0.8	-4.2	1.1	-8.0
CCN(CC)CC(=O)c1c[nH]c2ccc(OC)cc12
    .	0.721	0.5	3.9	4.1	.	.	.	-2.9
O=C(CSc1ccc(Cl)cc1)Nc1cccc(-c2nc3ncccc3o2)c1
    .	0.728	-2.9	0.8	-1.3	.	.	.	-3.0
Nc1ccc(C(=O)OCCCc2nc3ccccc3[nH]2)cc1
    .	0.678	5.6	-0.8	3.3	.	.	.	-2.4
O=C(Nc1cc(Cl)ccc1N1CCOCC1)c1ccc(F)c(S(=O)(=O)N2CCOCC2)c1
    i	0.677	-11.8	3.4	4.1	2.5	8.4	5.9	0.8
CCOC(=O)c1c(NC(=O)C(C)S(=O)(=O)c2cn(CC)c3ccccc23)sc2c1CCCC2 (configuration not stated)
    i	0.804	2.5	1.6	17.8	3.4	0.2	-1.4	24.2
COc1cccc(-c2cnc3c(c2)C(=O)N([C@H](C)CO)C[C@@H](C)[C@H](CN(C)C(=O)Nc2ccccc2F)O3)c1
    i	.	.	7.4	.	2.9&0.5	8.8&5.2	-1.7&0.8	.
O=C(c1cccs1)N1CCN(C(=O)c2cccs2)C1=S
    i	.	.	0.4	0.3	1.8	-2.4	0.2	.
O=C(NNC(=O)C1CCN(Cc2ccc(F)cc2Cl)CC1)Nc1ccc([N+](=O)[O-])cc1
    i	0.635	8.6	1.7	6.0	4.5	1.6	2.4	.
COc1ccc(Cl)cc1NC(=O)C(=O)NC1CCCCCC1
    .	0.766	3.9	2.5	-7.2	.	.	.	4.9
Cc1cc(OC(=O)c2ccccc2C(F)(F)F)c([N+](=O)[O-])c(=O)[nH]1
    i	0.73	7.1	1.4	3.2	9.0	13.2	-0.5	-3.2
Cc1ccc(C)c(-n2ccnc2SCC(N)=O)c1
    i	0.715	3.4	1.5	6.5	18.3	10.4	2.4	-6.2
CN(c1nnc(N)s1)C1CCCCC1
    i	0.661	0.3	-1.4	-3.2	7.7	6.6	-0.3	99.3*
NS(=O)(=O)c1ccc(CCNC(=O)CCCn2c(SCC(=O)N3CCCC3)nc3ccsc3c2=O)cc1
    i	0.646	3.0	2.9	-3.7	19.9	10.2	5.6	-0.5
CC(=O)c1c(C)[nH]c(C(=O)OCC(=O)NC(C)c2ccccc2)c1C (configuration not stated)
    i	.	.	-1.1	.	3.6	12.1	-3.1	.
Cc1cc(NC(=O)CSCc2nc(-c3cccc(F)c3)oc2C)no1
    i	0.727	8.3	-2.5	3.9	-3.7	2.6	-0.9	60.5
Cc1ccc2c(c1)C1CN(C)CCC1N2C(=O)COc1ccc(N(C)C(=O)c2ccccc2)cc1 (configuration not stated)
    i	0.694	-0.1	0.4	-0.8	2.7	8.0	-2.1	-53.7
O=C(c1ccc([N+](=O)[O-])c(CS(=O)(=O)c2ccc(Cl)cc2)c1)N1CCCC1
    i	0.691	3.1	0.3	-6.3	10.7	6.1	3.6	.
CC(=O)c1ccc(NC(=O)c2ccc(C)c(Br)c2)cc1
    i	0.672	4.9	1.6	4.9	0.1	4.2	-1.1	14.6
CCn1nc(C)c(/C=N/NC(=O)Cn2nccc2C)c1C
    .	.	.	-0.5	-3.8	.	.	.	-4.1
COc1ccc(NC(=O)c2cccnn2)cc1
    i	0.672	0.6	-2.5	0.0	9.7	19.7	0.1	-5.6
CCOC(=O)N1CCN(S(=O)(=O)N2CCCC(C(=O)NCc3ccc(F)cc3)C2)CC1 (configuration not stated)
    i	0.669	-0.4	3.4	0.5	-2.8	-4.5	-1.1	0.2
CN(C)/N=C/C=C1\CCC/C(=C/c2cccs2)C1=O
    i	.	.	34.1	-9.4	-1.4	2.6	4.6	12.3
COc1cc(/C=N/n2c(-c3cc(C)[nH]n3)n[nH]c2=S)ccc1O
    i	.	.	-2.0	-2.3	5.4	2.4	-4.9	.
CC1CCCCC1NC(=O)C1CCCN1S(=O)(=O)c1cccc2nsnc12 (configuration not stated)
    i	0.706	4.8	-0.8	3.7	5.0	8.9	-0.9	-3.9
c1ccc(CSc2ccc(-c3cccnc3)nn2)cc1
    i	0.682	1.9	5.8	-10.8	-9.6	-1.5	-0.8	-1.0
O=[N+]([O-])c1ccc2nc(SCc3cn4cccnc4n3)[nH]c2c1
    .	0.69	7.5	4.7	-4.0	8.8	12.4	1.6	-1.9
Cn1c(=O)c2c(nc(CN3CCCCC3)n2CCc2ccccc2)n(C)c1=O
    .	0.676	5.4	0.2	-8.1	.	.	.	12.4
CCCCNC(=O)c1sc(=S)n2c1[nH]c(=O)c1ccc(C(=O)NCCc3ccc(OC)c(OC)c3)cc12
    .	0.709	12.8	2.4	-2.4	.	.	.	18.1
CC(=O)c1ccc(-n2nnnc2SCC(=O)NNC(=O)c2ccco2)cc1
    i	0.717	0.7	3.0	-7.3	4.6	1.3	1.8	.
CCc1ccc(NC(=O)C(=O)NNC(=O)c2ccc(OC)cc2)cc1
    i	.	.	1.9	7.1	0.7	1.1	-1.1	-2.9
CC(OC(=O)CCN1C(=O)C2CC=CCC2C1=O)C(=O)Nc1ccc(F)cc1 (configuration not stated)
    i	0.627	2.0	-4.0	-5.5	3.5	9.6	-0.1	.
COc1ccccc1C(=O)Nc1ccnn1C1CCN(C(=O)c2cnsn2)CC1
    i	0.655	-1.8	-4.6	1.9	3.0	-3.3	0.4	2.9
COC(=O)c1[nH]c(C)c(/C(O)=C2\C(=O)C(=O)N(CCN3CCOCC3)C2c2ccco2)c1C (configuration not stated)
    i	0.682	12.4	1.1	-3.3	0.5	4.8	-0.2	-6.5
c1ccc2c(c1)nc(NCc1ccc3c(c1)OCO3)n2CCN1CCOCC1
    i	0.705	4.4	-1.6	7.0	0.9	-0.3	-2.2	?
CN(C(=O)COC(=O)C1COc2ccccc2O1)C1(C#N)CCCCC1 (configuration not stated)
    i	0.64	0.6	2.6	0.3	7.3	-0.9	-1.2	0.2
